High-throughput results deposited in PubChem by several laboratories.
Mtb betalactam – beta-lactam sensitization of Mtb H37Rv, H37Rv. M. tuberculosis H37Rv growth with meropenem, percent inhibition; hits of this screen are not shown here. 330,000 compounds, 0.27% hits. inhibition, % at 25 µM;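 active means about 74% or more and at least 40 points above the plate without the antibiotic, then above 30% in a dose series; inconclusive means first-round hits that could not be retested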;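 further: growth measured after seven days incubation then overnight dye step; 0% = bacteria only wells and 100% = bacteria with antibiotic; twin plates without the antibiotic show which effects depend on it; some results filed as inactive read as strong as hits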
Arbovirus anti – antivirals against arbovirus infection, primary screen, cell-based, full library, 10K replicate subset. inhibition, % at 10 µM. 200,000 compounds, 0.37% hits. arbovirus infection cell-based antiviral screen;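 active means inhibition from about 30%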;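 further: bluetongue infection of BSR cells; cell survival read as ATP light after 72 h; 0% = infected wells without compound and 100% = uninfected wells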
RecA intein inh – Mtb RecA intein splicing inhibitors, primary screen, biochemical, fluorescence, HTS | Protein RecA (Mycobacterium tuberculosis (strain ATCC 25618 / H37Rv)), P9WHJ3 | cell-free RecA intein splicing | inhibition, %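 (about 9 µM by stock and volumes)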 | 290,000 compounds, 0.75% hits | AID 2221, 2009; in the data active means inhibition above about 30%; inconclusive means no clear call, values can overlap the other calls;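 further: 0% = vehicle wells and 100% = reference inhibitor control wells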
Target sequence (P9WHJ3 whole entry, looked up): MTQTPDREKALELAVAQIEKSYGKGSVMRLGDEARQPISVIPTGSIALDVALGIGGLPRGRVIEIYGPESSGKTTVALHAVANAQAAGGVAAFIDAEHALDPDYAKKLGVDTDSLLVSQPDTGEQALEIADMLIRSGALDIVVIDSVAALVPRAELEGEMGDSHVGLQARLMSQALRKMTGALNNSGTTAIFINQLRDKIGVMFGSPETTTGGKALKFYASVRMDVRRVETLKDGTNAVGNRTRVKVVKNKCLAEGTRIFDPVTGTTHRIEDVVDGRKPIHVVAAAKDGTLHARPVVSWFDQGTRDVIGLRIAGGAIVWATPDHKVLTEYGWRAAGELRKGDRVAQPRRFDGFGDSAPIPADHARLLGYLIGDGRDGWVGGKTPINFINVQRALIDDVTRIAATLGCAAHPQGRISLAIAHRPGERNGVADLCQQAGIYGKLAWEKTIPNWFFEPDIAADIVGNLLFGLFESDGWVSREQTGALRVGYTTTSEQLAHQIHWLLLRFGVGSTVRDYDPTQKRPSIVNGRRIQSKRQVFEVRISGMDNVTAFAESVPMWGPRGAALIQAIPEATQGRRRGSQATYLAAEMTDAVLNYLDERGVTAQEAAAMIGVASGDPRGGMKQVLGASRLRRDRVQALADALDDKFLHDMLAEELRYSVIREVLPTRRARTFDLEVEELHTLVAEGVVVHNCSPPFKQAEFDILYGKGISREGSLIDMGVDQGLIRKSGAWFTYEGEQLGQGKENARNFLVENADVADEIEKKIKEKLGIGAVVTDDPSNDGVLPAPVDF
Mtb growth – M. tuberculosis H37Rv growth inhibitors, H37Rv strain (AID 1626); 220,000 compounds, 0.95% hits; inhibition, % at 10 µM, or IC50 in µM where a hit was titrated; M. tuberculosis H37Rv growth inhibition; higher % means a stronger effect;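 active means confirmed in a dose series; inconclusive means inhibition above 80% but not taken into the dose series; inactive means below 80% or under 30% at every dose of the series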;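 further: bacteria incubated seven days before Alamar blue readout; 0% = bacteria only wells and 100% = bacteria with antibiotic wells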
YopH inh – YopH tyrosine phosphatase inhibitors, primary screen, biochemical, fluorescence Ex485/Em525; YopH tyrosine phosphatase [Yersinia enterocolitica]; inhibition, %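 (about 10 µM by stock and volumes)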; 140,000 compounds, 0.16% hits;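 active means inhibition of 50% or more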;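 further: controls were vehicle for no effect and minimum signal wells for full effect; inactives centre near -20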
Arbovirus anti repeat – second read-out of Arbovirus anti, no call of its own (marks repeat the call); inhibition, %; measured here: 10K subset replicate screen; many hits read low in the repeat;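 first of two repeat runs on a subset; 0% = infected and 100% = uninfected wells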
* marks the source's active call; other numbers are inactive results; i = inactive; ? = inconclusive; . = not tested or not shown.

SMILES	Mtb betalactam	Arbovirus anti	RecA intein inh	Mtb growth	YopH inh	others
COc1ccc(OCC(=O)NC(=S)Nc2ccc3c4c(cccc24)CC3)cc1	1	2	0.3	-4%	-36
COc1ccc(CNc2nc(-c3cccnc3)nn2C(=O)CC(C)C)cc1	0	1	1.3	1%	.
O=C(NC1CCCCC1)C(c1ccc2ncccc2c1)N(Cc1ccccc1)C(=O)c1cccs1 (stereo not given)	19	-3	-1.1	41%	-33
Cc1ccsc1C(=O)N/N=C/c1ccc2c(c1)OCO2	1	-9	-2.4	3%	-31
O=C(NNC1=NCCCCC1)Nc1ccc(Cl)cc1	-13	.	7.5	-4%	.
CC1CCc2sc3nc(N4CCN(CCO)CC4)n4ncnc4c3c2C1 (stereo not given)	21	-13	0.0	4%	-32	Arbovirus anti repeat=-3
c1ccc(CCc2nc(-c3ccc(-n4cccc4)cc3)no2)cc1	5	-11	0.8	6%	-37
CC(C)(C)c1ccc(/C=C/C(=O)Nc2ncccn2)cc1	5	-18	7.8	8%	-15
CCC(C)NC(=O)CSc1nnc(-c2cc(-c3cccs3)nc3ccccc23)o1 (stereo not given)	-4	-1	-6.3	-12%	-18
COC(=O)c1cc(C#N)c(NCc2ccccc2)nc1C	-10	0	1.0	5%	-38
COc1cccc2c1OCC/C2=N\NC(=O)COc1ccccc1C	39	2	-0.7	0%	-36
Cc1ccc(SCC(=O)Nc2nncs2)cc1	1	.	-0.9	.	.
O=C(NCc1ccccn1)C(=O)NCC(c1ccco1)N1CCN(c2ccc(F)cc2)CC1 (stereo not given)	-15	2	-10	2%	.
CCOc1ccc(-n2c(SC(C)C(=O)OC)nc3c(c2=O)SCC3)cc1 (stereo not given)	8	-3	3.4	6%	-13	Arbovirus anti repeat=-5
CCc1nccn1S(=O)(=O)c1ccccc1[N+](=O)[O-]	3	.	-3.3	.	.
COc1cc(CNCc2ccc(C(=O)O)cc2)ccc1OCc1ccc(F)cc1	-1	.	2.2	.	.
C=CCn1c(SCc2csc(-c3ccc(Cl)cc3)n2)nnc1-c1ccccc1OC	9	-31	3.4	8%	-9
Cc1cc(C)c2nc(N3CCC(C(=O)NCCCN4CCCC4=O)CC3)sc2c1	-1	.	2.8	.	.
Nc1ccc(Br)cc1C(=O)c1ccccc1	0	1	5.7	-1%	.
Cc1ccc(S(=O)(=O)n2nc(-c3ccc(Cl)cc3)nc2NCc2ccco2)cc1	-3	-18	-7.4	-8%	3
Cc1cc(C(=O)Nc2nc3ccc(S(C)(=O)=O)cc3s2)c(C)o1	14	-4	-1.2	-5%	-10
CC/C=C/C(=O)N1CC2(CC(c3cccc(NC(=O)CCCCC)c3)=NO2)C[C@H]1C(N)=O (stereo not given in full)	-2	.	-1.9	-5%	.
O=C(CSc1nnc(-c2ccccc2)n1-c1ccccc1)c1cccs1	-15	-1	3.7	.	-39
C=CCNC(=S)/N=c1/ccccn1CCC	-5	.	-2.4	2%	.
c1ccc(CN2CCc3nc4ccccc4cc3C2)cc1	0	.	-5.0	.	.

The list goes on:
SMILES	Mtb betalactam	Arbovirus anti	RecA intein inh	Mtb growth	YopH inh	others
CCNc1nc(NC(C)C)nc(NS(=O)(=O)c2ccc(C)cc2)n1	4	.	-2.4	.	.
O=C1C=C(N(CCO)CCO)C2(CCCCC2)O1	-2	-2	0.1	-9%	-36	Arbovirus anti repeat=-1
Cc1cc(C)c(S(C)(=O)=O)c(S(=O)(=O)c2ccc(Cl)cc2)n1	-3	2	0.0	1%	-45
COc1cc(C2C3=C(CCCC3=O)Nc3[nH]n(-c4ccccc4)c(=O)c32)ccc1O (stereo not given)	14	-2	.	-6%	-28
Cc1ccc(N2CC(C(=O)NCc3nnnn3-c3ccc(C)c(C)c3)CC2=O)cc1 (stereo not given)	2	.	-2.0	.	.
CC(C)COn1c(=S)[nH]c2ccccc2c1=O	8	2	.	-15%	-4
COC(=O)C(NS(=O)(=O)c1ccc(N2CCCC2=O)cc1)c1ccccc1 (stereo not given)	0	.	-0.3	.	.
CC(=O)Nc1cccc(Oc2nc(C(F)(F)F)nc3ccccc23)c1	1	.	7.8	.	.
COc1ccc(CCN(C)CCN2C(=O)c3ccccc3C2=O)cc1OC	-4	9	-1.7	1%	-4
Cc1cc(NC(=O)CSCC(=O)NCc2cccc(C(F)(F)F)c2)no1	-2	.	0.0	.	.
COc1ccc(NC(=O)C(c2ccc(C)cc2)N(C)C(=O)CNC(C)=O)cc1 (stereo not given)	3	-5	-1.5	-4%	-17
COc1ccc(-n2c(C)nn(CCOc3ccccc3)c2=O)cc1	1	10	4.2	2%	.
Cc1nc(C(=O)NC(C)C)nn1-c1cc(Cl)cc(Cl)c1	-1	7	-2.5	4%	.
CCCn1cnc2c(N)c(C)c(C)cc21	-4	6	-4.5	-9%	-25
O=C1CC(c2ccc(S(=O)(=O)N3CCN(c4ccccc4)CC3)cc2)CN1 (stereo not given)	7	2	0.7	-4%	-11
Cc1ccc(C(=O)NCCNC(=O)c2ccc(C)o2)o1	-13	.	0.2	.	.
Cc1ccc(NC(=O)Cn2nc(-c3ccco3)ccc2=O)cc1Cl	9	.	-3.2	.	.
CCC(=O)N1CCc2cc(Br)cc(S(=O)(=O)NC3CCN(Cc4ccccc4)CC3)c21	-8	.	0.2	.	.
O=C(NNc1cc(Cl)ccc1Cl)C1CCC1	95	.	0.5	19%	.
Cc1ccc(C(=O)NCCc2csc(C)n2)cc1	5	2	-3.3	3%	-47
CC(c1ccccc1)C1CC(=O)N(CC(=O)O)C1=O (stereo not given)	-1	2	1.2	-13%	-28
COc1cccc(NC(=O)CN(C)C(=O)CNC(=O)c2ccc(Oc3ccccc3)cc2)c1	-5	.	3.1	.	.
COc1ccc(-c2csc(N(CCCN(C)C)C(=O)c3ccc(Br)cc3)n2)cc1	7	.	-2.0	.	.
Nc1nc2n[nH]nc2c(=O)[nH]1	3	.	-1.4	-12%	.
COCCNc1oc(-c2cccs2)nc1S(=O)(=O)c1ccc(C)cc1	-5	-5	0.8	18%	.

The list goes on, overlapping the part above by 7 compounds.
SMILES	Mtb betalactam	Arbovirus anti	RecA intein inh	Mtb growth	YopH inh	others
O=C(NNc1cc(Cl)ccc1Cl)C1CCC1	95	.	0.5	19%	.
Cc1ccc(C(=O)NCCc2csc(C)n2)cc1	5	2	-3.3	3%	-47
CC(c1ccccc1)C1CC(=O)N(CC(=O)O)C1=O (stereo not given)	-1	2	1.2	-13%	-28
COc1cccc(NC(=O)CN(C)C(=O)CNC(=O)c2ccc(Oc3ccccc3)cc2)c1	-5	.	3.1	.	.
COc1ccc(-c2csc(N(CCCN(C)C)C(=O)c3ccc(Br)cc3)n2)cc1	7	.	-2.0	.	.
Nc1nc2n[nH]nc2c(=O)[nH]1	3	.	-1.4	-12%	.
COCCNc1oc(-c2cccs2)nc1S(=O)(=O)c1ccc(C)cc1	-5	-5	0.8	18%	.
O=C(COC(=O)CSCC(=O)N1CCCCC1)Nc1ccc(Cl)cc1	-19	1	.	-22%	-33
CCCCC(=O)Nc1ccc(C(=O)NNC(=S)NC(=O)c2ccccc2[N+](=O)[O-])cc1	0	-2	1.0	-3%	.
CC(=O)Nc1cccc(C(=O)OCC(=O)NC(=O)c2ccccc2)c1	-7	.	-0.2	.	.
N#Cc1cccc(Nc2c3c(nc4ccccc24)CCC3)c1	2	.	0.8	.	.
CCOc1cc(-c2noc(CCCC(N)=O)n2)cc(Br)c1OC	30	-1	-1.3	-5%	-30
O=C(CN1CCCC1)Nc1ccc2c(c1)CCC2	-7	-1	-0.9	4%	.
O=C(NNC(=O)c1cccc2ccccc12)c1ccco1	-3	-4	.	-5%	-43
Cc1cccc(C)c1NC(=O)CC(NCCc1ccccc1)C(=O)O (stereo not given)	1	2	-1.4	3%	-23
Cc1ccccc1C(=O)NC1CCN(CC(=O)Nc2ccc3c(c2)OCO3)CC1	-5	7	1.9	-8%	.
Cc1ccc(CNC(=O)COc2ccc(C)nc2[N+](=O)[O-])cc1	-2	5	-0.8	6%	-13
CCOC(=O)CC1C(=O)NCCN1C(=O)Nc1ccc(Cl)cc1 (stereo not given)	-14	1	1.0	4%	-17
CCS(=O)(=O)c1nc(S(=O)(=O)c2ccc(Cl)cc2)c(N2CCC(C(N)=O)CC2)s1	-4	.	-0.9	.	.
O=C(Nc1ccccc1)N1CCc2c([nH]c3ccccc23)C1C(F)(F)F (stereo not given)	2	.	3.6	3%	.
COc1cc2c(C)nc3c(c(C)nn3-c3ccccc3)c2cc1OC	12	-7	9.7	-1%	.
O=C(C1=C(O)C(=O)N(CCCN2CCOCC2)C1c1ccccn1)c1cc2ccccc2o1 (stereo not given)	0	-2	0.2	2%	-8
O=C(NC(=S)Nc1ccc2oc(=O)ccc2c1)c1ccccc1F	-7	.	1.0	5%	.
COc1ccc(CNC(=O)C(=O)NCc2ccncc2)cc1	-11	2	3.8	2%	.
CCn1c2ccccc2c2cc(CN3CCN(S(=O)(=O)CC)CC3)ccc21	5	5	0.8	0%	14
O=C1CC(c2ccccc2)CN1S(=O)(=O)c1ccccc1 (stereo not given)	3	7	2.9	-4%	-52	Arbovirus anti repeat=2
COCCNC(=O)c1c(N)n(CCCn2ccnc2)c2nc3ccccc3nc12	2	-6	i	-9%	-16
O=C(c1ccc(Cl)cc1)N(Cc1ccco1)C1CCS(=O)(=O)C1 (stereo not given)	-10	.	1.6	.	.
O=C(N/N=C/c1c(O)n(C2CCCCC2)c(=S)[nH]c1=O)c1ccccc1O	2	.	37*	.	.
Cc1ccc(Cl)cc1NC(=S)N(Cc1cccnc1)Cc1ccccc1Cl	3	-8	15	-5%	.
O=C(Cn1ncc2c(=O)oc3ccccc3c21)NCCC1=CCCCC1	-6	1	-6.3	2%	-27
COc1ccc(-c2nc(CS(=O)CC(=O)NCCc3ccc(OC)c(OC)c3)c(C)o2)cc1 (stereo not given)	-2	.	-0.4	.	.

Random excerpt: 2 entries already listed
SMILES	Mtb betalactam	Arbovirus anti	RecA intein inh	Mtb growth	YopH inh	others
COc1ccc(-c2nc(CS(=O)CC(=O)NCCc3ccc(OC)c(OC)c3)c(C)o2)cc1 (stereo not given)	-2	.	-0.4	.	.
CCn1c2ccccc2c2cc(CN3CCN(S(=O)(=O)CC)CC3)ccc21	5	5	0.8	0%	14

Other results follow:
SMILES	Mtb betalactam	Arbovirus anti	RecA intein inh	Mtb growth	YopH inh	others
O=C(O)C1C2C=CC3(CN(Cc4ccccn4)C(=O)C13)O2 (stereo not given)	3	0	.	2%	-10
CSCCC(NC(N)=O)C(=O)NCc1cccc(Cl)c1 (stereo not given)	-1	1	-2.1	.	-19
CCN(CC)S(=O)(=O)c1ccc(Cl)c(C(=O)Nc2ccc(Cl)cc2[N+](=O)[O-])c1	-1	1	0.8	8%	-47
COc1ccc(OCCC(=O)NCc2ccccc2)cc1	?	2	1.1	-4%	-41
COCCCNC(=S)NNC(=O)c1ccc(C(C)(C)C)cc1	0	.	1.4	1%	.
CCOC(=O)c1ccccc1NC(=O)/C=C/c1cc(OC)c(OC)c(OC)c1	3	11	9.1	-6%	-12
Cc1ccc(OC(=O)CCC(=O)Nc2ccc(C(N)=O)cc2)cc1	-13	.	3.8	.	.
CN(C(=O)c1ccncc1)C1CCCCC1	-13	.	-0.1	.	.
O=C1c2ccccc2C(=O)N1c1ccc(Br)c2cccnc12	-6	12	-0.6	-14%	.
S=C(NCCc1ccccc1)Nc1ccc(Nc2ccccc2)cc1	44	-17	13	?	.
Clc1ncccc1-c1nc2ccccc2s1	1	-7	0.4	7%	.
O=C(c1sc(N2CCOCC2)nc1-c1ccccc1)N1CCCCC1	-11	-7	1.8	8%	3
CCOc1ccc(OCC)c(S(=O)(=O)NC2CC(C)(C)NC(C)(C)C2)c1	2	-5	-0.7	-3%	.
CCC(C)C(=O)N1c2ccccc2C(=C2SC(C(=O)OC)=C(C(=O)OC)S2)C(=S)C1(C)C (stereo not given)	-10	-1	2.5	1%	-27
CCOC(=O)Cc1csc(SCC(=O)/C(C#N)=C(\C)N)n1	2	-2	.	3%	-30
CN1CCN(C(=O)c2ccc3c(c2)S(=O)(=O)c2ccccc2C3=O)CC1	-12	3	1.0	4%	.
CCOC(=O)C1CCCN(Cc2nc(N)nc(Nc3ccccc3OC)n2)C1 (stereo not given)	38	2	-0.3	9%	-30	Arbovirus anti repeat=-4
Clc1ccc(OCc2nc(-c3ccncc3)no2)cc1	1	0	-3.3	12%	-27
COc1ccc(N(CC(=O)NCc2ccc(Cl)cc2)S(=O)(=O)c2c(C)n[nH]c2C)cc1	6	.	-0.4	.	.
CC(C)(C)c1ccc(S(=O)(=O)NCC(=O)N2CCN(Cc3ccccc3)CC2)cc1	-4	.	-1.5	.	.
CCCN1CCC2(CC1)NC(CO)(CO)CO2	-7	-1	0.9	-2%	12

Only part of the results is shown (hit frequency here may not be typical).
